A1 inhib: blocks A1 activity; MEF A1-2A-BIM cells, caspase-Glo luminescence, 3 h; percent of clofoctol signal, DMSO as zero; caspase activation, % (concentration not given with the values); hit rate 0.51% among 21,000;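 active = most replicate scores above 10, or exactly half above 10 with mean activity above 10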;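 note: effector caspase 3 and 7 activity cleaving a DEVD luciferin substrate; 50 nL library stock added to about 30 µL; numbers are from one replicate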
BJeLR viab HTS: BJeLR cell viability reduction; BJeLR fibroblasts viability, CellTiterGlo ATP luminescence, 48 h; HRASV12, hTERT and SV40 LT/ST transformed; viability loss activity score, % (no concentration beside the values); hit rate 0.64% among 30,000; AID 2275; in the data active = viability loss activity score above about 50%; about a fifth of its hits are not listed in these tables;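 note: higher score means fewer live cells and less ATP luminescence; stock transfer was 50 or 100 nL into about 30 µL; 0% = vehicle wells and 100% = a reference killing control; one replicate is shown; the record names a cut of 85%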
* hit, by the source's call; nt = not tested or not shown. Not all compounds are listed (hit frequency here may not be typical).

SMILES | A1 inhib | BJeLR viab HTS
CCOC(=O)N1CCN(C(=O)C(CC(C)C)NS(=O)(=O)c2ccc3c(c2)oc(=O)n3C)CC1 (stereo not drawn) | nt | -2.9
C[C@H](CO)N1C[C@H](C)[C@H](CN(C)Cc2ccc(Cl)c(Cl)c2)Oc2ccc(NC(=O)Cn3cnnn3)cc2C1=O | 0.8 | -1.7
C[C@@H]1CN([C@H](C)CO)C(=O)c2cc(NC(=O)Nc3cccc4ccccc34)ccc2O[C@H]1CN(C)Cc1ccc(C(=O)O)cc1 | -0.4 | 2.4
C[C@@H]1CN([C@@H](C)CO)C(=O)c2cccc(NS(=O)(=O)c3cccs3)c2O[C@@H]1CN(C)CC1CCCCC1 | nt | -4.1
Cc1ccccc1N1C(=O)C(Oc2ccc(Cl)cc2)C1CNC(C)(C)C (stereo not drawn) | nt | -4.1
COCCN1C(=O)/C(=C/c2cc(C)n(-c3ccncc3)c2C)C(=O)N(c2ccccc2)C1=O | -0.2 | -9.2
C[C@@H]1CN([C@@H](C)CO)C(=O)c2cccc(NC(=O)Nc3ccc(F)cc3)c2O[C@H]1CN(C)C(=O)Nc1ccc(F)cc1 | nt | -0.1
Cc1ccc(Cc2nnc(C(=O)NCCC3=CCCCC3)o2)cc1 | nt | 3.3
Cc1cc2c(cc3c(SCC(=O)Nc4ccccc4F)nncn32)o1 | -0.5 | 0.6
Cc1ccc2oc(=O)c3cc(C(=O)NC(C)C)sc3c2c1 | nt | 4.4
C[C@H]1CN([C@@H](C)CO)C(=O)c2cc(NC(=O)Cc3ccccc3)ccc2O[C@H]1CN(C)Cc1ccc(C(=O)O)cc1 | 1.8 | 5.9
C[C@@H]1CN([C@@H](C)CO)C(=O)c2cc(NC(=O)C3CCCCC3)ccc2O[C@H]1CN(C)S(=O)(=O)c1ccccc1 | 0.0 | 3.2
CCc1ccc(CNC(=O)c2cc3c(C)nc4ccccc4c3o2)cc1 | nt | 7.2
O=c1c2c3c(sc2ncn1-c1ccccc1)CCCC3 | 2.9 | 1.5
C[C@@H]1CN([C@@H](C)CO)C(=O)c2cc(NC(=O)Nc3ccc(C(F)(F)F)cc3)ccc2O[C@H]1CN(C)Cc1ccc(Oc2ccccc2)cc1 | -0.5 | -2.3
CCC(C)C(=O)Nc1cccc(C(F)(F)F)c1 (stereo not drawn) | 0.8 | 4.5
C[C@@H]1CN([C@@H](C)CO)C(=O)c2cccc(NS(=O)(=O)c3ccc(F)cc3)c2O[C@H]1CN(C)C(=O)Nc1ccc(C(F)(F)F)cc1 | nt | -2.1
O=C(NC(=O)c1ccccc1Cl)NC1CC1 | 1.1 | -4.9
Cc1ccc(S(=O)(=O)Nc2cccc3c2O[C@@H](CN(C)C(=O)Nc2ccccc2)[C@H](C)CN([C@H](C)CO)C3=O)cc1 | nt | -0.5
CC1CCCC(C)N1NC(=O)c1ccc(Cl)c(S(N)(=O)=O)c1 (stereo not drawn) | 0.3 | -1.6
C=C1CCC(C)C(C)(CCC2=CC(=O)OC2O)C/C=C\C=C/1C(=O)O (stereo not drawn) | -0.3 | 5.0
CCCN(CCC)c1ncnc2c1cnn2-c1cccc(C)c1 | nt | -5.8
C[C@H](CO)N1C[C@H](C)[C@@H](CN(C)CC2CC2)Oc2c(NS(=O)(=O)c3ccccc3)cccc2C1=O | nt | 11
COc1ccc(S(=O)(=O)Nc2cccc3c2O[C@@H](CN(C)S(=O)(=O)c2ccccc2)[C@@H](C)CN([C@H](C)CO)C3=O)cc1 | nt | -0.8
CCOC(=O)c1c(CS(=O)(=O)Cc2ccc(Cl)cc2)oc2c(F)c(F)c(F)c(F)c12 | -0.4 | 4.1
Cc1cc2c(c(=O)n1CCN(C)C)C(c1ccncc1)C(C#N)=C(N)O2 (stereo not drawn) | 0.7 | 0.5
Cc1ccc(S(=O)(=O)N(C)C[C@@H]2Oc3c(cccc3N(C)C)C(=O)N([C@@H](C)CO)C[C@H]2C)cc1 | nt | -2.7
Cc1ccccc1NC(=O)C(CC(C)C)N1C(=O)c2ccccc2C1=O (stereo not drawn) | 1.4 | -6.1
C[C@@H]1CN([C@H](C)CO)C(=O)c2cccc(NS(=O)(=O)c3ccc(Cl)cc3)c2O[C@@H]1CN(C)S(=O)(=O)c1cn(C)cn1 | nt | 6.9
Cn1c(SCC(=O)c2ccc(Cl)cc2)nnc1-c1ncc(C(F)(F)F)cc1Cl | -0.2 | 1.2
COc1ccc(CCNc2nc(SCC(=O)c3ccc(F)cc3)nc3ccccc23)cc1OC | 16* | -3.0
Cc1ccc(SCC(=O)N2CCc3ccccc32)cc1 | -3.7 | -1.8
C[C@H](CO)N1C[C@H](C)[C@H](CN(C)C(=O)NC2CCCCC2)Oc2ccc(NC(=O)CCN3CCOCC3)cc2C1=O | -0.8 | -7.2
C(=N\n1cnnc1)/c1ccccn1 | 0.4 | -2.8
O=C(Nc1ccc(S(=O)(=O)Nc2nccs2)cc1)c1cc2ccccc2oc1=O | -0.6 | -0.3
COc1cccc(C(=O)NCCc2csc3nc(-c4ccc(C)cc4)nn23)c1OC | 0.5 | -3.3
C[C@H](CO)N1C[C@H](C)[C@H](CN(C)S(=O)(=O)c2ccccc2)Oc2c(NC(=O)C3CCOCC3)cccc2C1=O | nt | 0.5
Cc1ccc(S(=O)(=O)Nc2ccc3c(c2)C(=O)N([C@@H](C)CO)C[C@@H](C)[C@@H](CN(C)Cc2ccc(C(=O)Nc4ccccc4N)cc2)O3)cc1 | nt | 18
Cc1nc2ccccn2c1-c1ccnc(SCC(=O)c2cccc(C(F)(F)F)c2)n1 | -0.8 | 1.3
C[C@@H]1CN([C@@H](C)CO)C(=O)c2cccc(NS(C)(=O)=O)c2O[C@@H]1CN(C)CC1CCCCC1 | nt | 0.5
CCc1ccc(NC(=O)CCC(=O)Nc2ccc3nc(N4CCCCC4)cc(C)c3c2)cc1 | nt | -3.4
O=C(NCCc1ccsc1)c1cc2c(s1)-c1ccccc1OC2 | 0.2 | 1.0
O=C(CN1C(C(=O)c2ccccc2)C(=O)c2ccccc2S1(=O)=O)c1ccccc1 (stereo not drawn) | 0.0 | 3.2
O=C1C(Oc2ccccc2)C(c2ccc3c(c2)OCO3)N1C1CCCC1 (stereo not drawn) | nt | 0.3
Cc1c(C(=O)N2CCCC2)oc2ccc(S(=O)(=O)N3CCCC3)cc12 | nt | 0.5
O=C(Cn1c(=O)c(C(F)(F)F)nc2ccccc21)N1CCc2ccccc2C1 | nt | -3.0
CC(C)(C)Nc1nc(C(=O)O)nc(N2CCOCC2)n1 | 0.5 | -0.2
C[C@H]1CN([C@@H](C)CO)C(=O)c2cccc(NC(=O)c3ccncc3)c2O[C@@H]1CN(C)Cc1ccccc1 | nt | 1.9
COc1ccc(S(=O)(=O)Nc2cccc3c2O[C@@H](CN(C)C(=O)Nc2ccc(C(F)(F)F)cc2)[C@H](C)CN([C@@H](C)CO)C3=O)cc1 | nt | -7.5
CC[n+]1ccccc1/C=C/N(C(C)=O)c1ccccc1 | -0.6 | -0.2
C[C@H]1CN([C@@H](C)CO)C(=O)c2cc(NC(=O)Cc3ccccc3)ccc2O[C@H]1CN(C)Cc1ccc2c(c1)OCO2 | 1.7 | 3.0
CCOC(=O)c1oc2c(CN3CCN(C)CC3)c(O)ccc2c(=O)c1-c1ccc(OC)cc1 | nt | -1.2
Cc1cc(OCc2nc(-c3ccc(OCC(N)=O)cc3)no2)cc(C)c1Cl | nt | -0.4
CCCCN(Cc1cc2cccc(C)c2[nH]c1=O)S(=O)(=O)c1ccccc1 | 0.6 | -7.9
O=C(CN1C(=O)/C(=C/c2ccccc2Cl)SC1=S)Nc1ccccc1C(F)(F)F | nt | 0.6
CC(=O)Nc1ccc(S(=O)(=O)NC(C)C)cc1 | 0.1 | 8.9
COc1ccc(CN(C)C[C@H]2Oc3c(NC(=O)Nc4c(C)noc4C)cccc3C(=O)N([C@H](C)CO)C[C@@H]2C)cc1 | nt | 13
COc1cccc(-n2nnc3c(=O)n(CC(=O)c4ccc(Cl)cc4)cnc32)c1 | -0.5 | -5.4
COc1cccc(C(=O)/C=c2\[nH]c(=O)/c(=C\c3cccs3)s2)c1 | -0.3 | 2.7
C[C@H](CO)N1C[C@H](C)[C@@H](CN(C)S(=O)(=O)c2ccc(Cl)cc2)Oc2c(NC(=O)Nc3ccc(C(F)(F)F)cc3)cccc2C1=O | nt | -1.0

3 of the compounds above, as labelled records.
Cn1c(SCC(=O)c2ccc(Cl)cc2)nnc1-c1ncc(C(F)(F)F)cc1Cl
  A1 inhib: -0.2
  BJeLR viab HTS: 1.2
COc1ccc(CCNc2nc(SCC(=O)c3ccc(F)cc3)nc3ccccc23)cc1OC
  A1 inhib: 16*
  BJeLR viab HTS: -3.0
Cc1ccc(SCC(=O)N2CCc3ccccc32)cc1
  A1 inhib: -3.7
  BJeLR viab HTS: -1.8

The results go on:
SMILES | A1 inhib | BJeLR viab HTS
CN(C)/C=C/C(=O)c1ccc2c(c1)CCC(C)(C)O2 | -5.4 | -4.0
O=C(Nc1ccc(N2C(=O)C3C4C=CC(C4)C3C2=O)cc1)Nc1nncs1 (stereo not drawn) | nt | 0.6
CC(=O)NC1CC(C)(C)NC(C)(C)C1 | 1.0 | -2.1
CC(C)NC(=O)Nc1ccc2c(c1)C(=O)N([C@@H](C)CO)C[C@H](C)[C@@H](CN(C)Cc1ccccc1)O2 | 0.6 | 0.3
Cc1nn(-c2ccccc2)cc1C1C=C(c2ccc(Cl)cc2)N=C2SCC(=O)N21 (stereo not drawn) | 0.7 | 0.2
CC(NC(=O)c1ccccc1C(=O)O)C12CC3CC(CC(C3)C1)C2 (stereo not drawn) | 0.0 | 20
C[C@H](CO)N1C[C@H](C)[C@H](CN(C)S(=O)(=O)c2ccc(Cl)cc2)Oc2ccc(NS(=O)(=O)c3ccc(Cl)cc3)cc2C1=O | -0.3 | -4.6
C[C@@H]1CN([C@H](C)CO)C(=O)c2cc(NC(=O)Cn3cnnn3)ccc2O[C@H]1CN(C)C | 0.1 | 7.4
CC(C)NC(=O)Nc1ccc2c(c1)C(=O)N([C@@H](C)CO)C[C@H](C)[C@H](CN(C)Cc1ccc3c(c1)OCO3)O2 | -0.5 | 0.1
C[C@@H]1CN([C@H](C)CO)C(=O)c2cc(NC(=O)Nc3ccc4c(c3)OCO4)ccc2O[C@H]1CN(C)Cc1ccncc1 | 0.0 | 5.4
CCN(CC)CCN1C2=C(C(=O)CC(C)(C)C2)C(c2cccc(F)c2)C2=C1CC(C)(C)CC2=O | 0.4 | -5.4
CCn1c(-c2ccccc2)ccc1C(O)C(F)(F)F (stereo not drawn) | -0.2 | 5.6

An excerpt from above in order of their number in A1 inhib, smallest number first.
structure | A1 inhib
C[C@@H]1CN([C@H](C)CO)C(=O)c2cc(NC(=O)Nc3ccc4c(c3)OCO4)ccc2O[C@H]1CN(C)Cc1ccncc1 | 0.0
C[C@@H]1CN([C@H](C)CO)C(=O)c2cc(NC(=O)Cn3cnnn3)ccc2O[C@H]1CN(C)C | 0.1
Cc1nn(-c2ccccc2)cc1C1C=C(c2ccc(Cl)cc2)N=C2SCC(=O)N21 (stereo not drawn) | 0.7

The list goes on.
SMILES | A1 inhib | BJeLR viab HTS
C[C@H]1CN([C@@H](C)CO)C(=O)c2cccc(NC(=O)C3CC3)c2O[C@H]1CN(C)C(=O)Nc1cccc2ccccc12 | nt | -0.1
COc1ccc(S(=O)(=O)Nc2cccc3c2O[C@@H](CN(C)C(=O)Nc2cccc4ccccc24)[C@H](C)CN([C@H](C)CO)C3=O)cc1 | nt | -0.3
N#C/C(=C\N1CCCCC1)S(=O)(=O)c1ccc(Cl)cc1 | -0.4 | 2.6
COc1ccc2[nH]cc(CCNC(C)=O)c2c1 | 0.1 | 0.6
CNC[C@@H]1Oc2c(N)cccc2C(=O)N([C@H](C)CO)C[C@H]1C | nt | 3.2
COCc1cc(=O)[nH]c(SCC(=O)C(C)(C)C)n1 | -0.4 | 6.2
O=C1C=C(N2CCOCC2)C(=O)c2ccccc21 | nt | 11
COC(=O)C1=CO[C@@H](O[C@@H]2O[C@H](CO)[C@@H](O)[C@H](O)[C@H]2O)[C@H]2[C@@H]1[C@H](O)C[C@]2(C)O | -1.2 | -18
C[C@H]1CN([C@@H](C)CO)C(=O)c2cc(NC(=O)NC3CCCCC3)ccc2O[C@@H]1CN(C)CC1CCCCC1 | -0.7 | -8.2
CC(C)NC(=O)Nc1cccc2c1O[C@@H](CN(C)CC1CC1)[C@H](C)CN([C@@H](C)CO)C2=O | nt | 3.2
CCNc1c(N)c(=O)oc2ccccc12 | 0.3 | -0.5
O=C(Cn1ccc2ccccc2c1=O)NCC(=O)NC1CCCCCC1 | nt | 1.3

In the list so far, 3 have a tert-butyl group.
SMILES | A1 inhib | BJeLR viab HTS
Cc1ccccc1N1C(=O)C(Oc2ccc(Cl)cc2)C1CNC(C)(C)C (stereo not drawn) | nt | -4.1
CC(C)(C)Nc1nc(C(=O)O)nc(N2CCOCC2)n1 | 0.5 | -0.2
COCc1cc(=O)[nH]c(SCC(=O)C(C)(C)C)n1 | -0.4 | 6.2

(more compounds)
SMILES | A1 inhib | BJeLR viab HTS
CC(C)N1C(=O)S/C(=C/c2ccc(Sc3nc4ccccc4[nH]3)o2)C1=O | 0.2 | 1.4
C[C@H](CO)N1C[C@H](C)[C@H](CN(C)C(=O)Nc2cccc3ccccc23)Oc2ccc(NS(=O)(=O)c3cn(C)cn3)cc2C1=O | -0.3 | 4.3
CCc1cc(=O)oc2c(C)c3occ(-c4ccc(Cl)cc4)c3cc12 | 1.0 | 0.5
CC(C)=CCc1cc(O)ccc1O[C@@H]1O[C@H](CO)[C@@H](O)[C@H](O)[C@H]1O | 0.3 | 1.5
Cc1ccc(S(=O)(=O)NCc2ccccc2)cc1 | 1.0 | -8.3
C[C@H]1CN([C@@H](C)CO)C(=O)c2cc(NS(=O)(=O)c3cn(C)cn3)ccc2O[C@@H]1CN(C)CC1CC1 | 0.7 | -2.3
Cc1c2c(nc3c(C(=O)NC4CCCC(C)C4C)cnn13)CCCC2 (stereo not drawn) | 0.9 | -7.4

Source: PubChem
